TRPV1 PAM – HTS Assay for Compounds that Act as Potentiators of the Vanilloid Receptor 1; actives 0.02% (n = 320,000); TRPV1-expressing cells, Fluo-8 calcium influx, capsaicin EC20 potentiation; host cell line not named in the record; control for the full effect not named in the record; AID 540277, 2011; Transient receptor potential cation channel subfamily V member 1 (Homo sapiens), Q8NER1; potentiation, % at 8.33 µM; active means potentiation above 80%; inconclusive means 30% to 80%; inactive means below 30%; note: 0% is about no effect
Target sequence (Q8NER1 whole entry, looked up): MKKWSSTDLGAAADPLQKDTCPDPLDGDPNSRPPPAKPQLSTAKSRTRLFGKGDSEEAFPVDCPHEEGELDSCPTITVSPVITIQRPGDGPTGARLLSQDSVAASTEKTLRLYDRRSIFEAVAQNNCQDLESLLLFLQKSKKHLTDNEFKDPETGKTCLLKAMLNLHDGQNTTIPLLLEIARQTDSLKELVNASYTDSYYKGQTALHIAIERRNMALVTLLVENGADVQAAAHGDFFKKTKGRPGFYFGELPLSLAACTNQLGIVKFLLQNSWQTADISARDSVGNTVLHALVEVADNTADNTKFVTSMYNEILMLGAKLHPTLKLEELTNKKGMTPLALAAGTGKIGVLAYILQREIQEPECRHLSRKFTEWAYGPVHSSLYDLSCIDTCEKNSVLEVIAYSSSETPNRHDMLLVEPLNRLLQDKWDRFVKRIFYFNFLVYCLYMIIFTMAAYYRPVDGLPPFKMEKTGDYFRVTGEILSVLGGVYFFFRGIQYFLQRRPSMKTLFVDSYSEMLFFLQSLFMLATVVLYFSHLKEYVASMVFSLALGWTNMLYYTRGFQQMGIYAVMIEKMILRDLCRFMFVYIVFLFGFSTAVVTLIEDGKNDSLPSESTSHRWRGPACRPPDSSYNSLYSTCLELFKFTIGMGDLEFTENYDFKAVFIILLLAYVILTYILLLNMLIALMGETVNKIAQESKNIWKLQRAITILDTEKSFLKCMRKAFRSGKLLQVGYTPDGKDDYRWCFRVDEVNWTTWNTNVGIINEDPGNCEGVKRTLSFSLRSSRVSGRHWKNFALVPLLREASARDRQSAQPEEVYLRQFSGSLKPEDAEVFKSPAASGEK
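TRPV1-expressing cells were cultured overnight at 35.5C and loaded with Fluo-8 calcium dye for 40 to 90 min at room temperature. After a 10 s baseline, compound was added and calcium influx was read kinetically for 3 min (ex 480/em 520 nm).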
ClpP mod – qHTS Assay for Activators of ClpP. ATP-dependent Clp protease proteolytic subunit (Bacillus subtilis (strain 168)), P80244. actives 1.9% (n = 340,000). purified B. subtilis ClpP, FRET peptide cleavage, 20 min. Potency, µM (titrated, usually from 57.5 µM), inactives show top-dose activity change, negative = active. AID 651965, 2013; active = well fitted falling curve with a large enough effect; inconclusive = small, poorly fitted or top-dose-only effect; inactive = no such curve, though single readings can be large or run the other way; note: potency is the fitted concentration of half-maximal effect; the source files actives as falling curves though it sought activators and does not explain the sign; nearly all actives have a fitted effect of over 65% in size; many hits overshoot -100%
Target sequence (P80244 whole entry, looked up): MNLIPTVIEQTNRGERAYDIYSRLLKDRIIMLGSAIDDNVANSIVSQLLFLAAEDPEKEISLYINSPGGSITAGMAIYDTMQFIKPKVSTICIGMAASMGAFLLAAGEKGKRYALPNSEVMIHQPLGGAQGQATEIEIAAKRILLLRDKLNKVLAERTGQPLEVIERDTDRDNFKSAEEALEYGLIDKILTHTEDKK
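Purified B. subtilis ClpP, 10 microg/mL final in Tris/HCl pH8 with KCl, BSA, glycerol and Tween-20, cleaved an Abz/nitrotyrosine-quenched decapeptide. Fluorescence (ex 320, em 430) was read at 0 and 20 min at room temperature. Delta was normalized to 5.8 microM ADEP and DMSO/no-enzyme controls.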
TRPML1 inh – qHTS for Inhibitors of the Human Mucolipin Transient Receptor Potential 1 (TRPML1); Mucolipin-1 (Homo sapiens), Q9GZU1; TRPML1-inducible cells, Ca2+ dye fluorescence, FDSS; active compounds read low; inhibition of EC80 agonist-evoked calcium signal; activity change, negative = inhibition, % (concentration not given with the values); actives 0.02% (n = 390,000); in the data active means activity change below about -50%; inconclusive means about -30% to -50%; inactive means above about -30%;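 note: stimulus is agonist 54-4 at its EC80 concentration; % is set by controls: 0 for no effect and ±100 for the full control effect; the text of the record puts the active cut at -80%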
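TRPML1-DL cells, Tet-induced overnight (~16 h, 37 °C) at 1,500 cells/well, were loaded with Ca8 no-wash dye plus quencher for 45-90 min at room temperature. Compounds were pinned during FDSS kinetic reading; agonist 54-4 at EC80 (4 uM final) then added.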
gsp antagonist – qHTS for Antagonists of gsp, the Etiologic Mutation Responsible for Fibrous Dysplasia/McCune-Albright Syndrome: qHTS; gsp-mutant cells, cAMP HTRF, 30 min; control for the full effect not named in the record; Potency, µM (top dose mostly 76.9 µM), inactives show at the highest dose activity change, negative = inhibition, hits mostly inhibitors; actives 0.4% (n = 340,000); active = falling curve of any shape with a large fitted effect; inconclusive = falling curve, mostly with a smaller effect; inactive = flat or rising curve; cell line not stated here;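 note: intracellular cAMP measured with PDE inhibitor Ro 20-1724 present during compound exposure; potency is the fitted concentration of half-maximal effect; % is set by controls: 0 for no effect and ±100 for the full control effect; nearly all actives have a fitted effect of over 65% in size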
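Measurement of cellular cAMP by homogeneous time-resolved fluorescence following a 30 min compound exposure at 37C. The PDE inhibitor […] was present throughout; the assay buffer was DPBS with 0.05% BSA and 0.005% Tween 20.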
Sfp PPTase inh – qHTS Assay for Inhibitors of Bacillus subtilis Sfp phosphopantetheinyl transferase (PPTase). 4'-phosphopantetheinyl transferase ffp (Bacillus subtilis), Q9F4F7. Biochemical Sfp PPTase activity, qHTS. Potency, µM, for inactives: max response, negative = inhibition, actives largely listed as inhibitors. actives 3.5% (n = 310,000). AID 1490, 2009; active = well fitted inhibition curve with a large enough effect; inconclusive = small, poorly fitted or top-dose-only effect, or another doubt; inactive = no such curve, though single readings can be large or run the other way;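 note: the enzyme is Sfp with the accession as filed and its product quenches rhodamine fluorescence; potency is the fitted concentration of half-maximal effect; 0% = enzyme reaction without inhibitor and -100% = no enzyme wells; top concentration of the series not given in the record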
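Fluorescence-quenching assay: 15 nM Sfp-PPTase preincubated 15 min at room temperature with compound, then 5 uM rhodamine-CoA and 12.5 uM BHQ-2-labelled YbbR peptide added. Fluorescence (ex 525/em 598 nm) read at start and after 30 min; difference gives rate.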
gsp ag – qHTS for Agonist of gsp, the Etiologic Mutation Responsible for Fibrous Dysplasia/McCune-Albright Syndrome: qHTS. gsp mutant cells, cAMP HTRF, 30 min; control for the full effect not named in the record. Potency, µM (doses to about 76.9 µM), for inactives: at the highest dose activation (cAMP increase), most hits filed as activators. actives 0.13% (n = 340,000). AID 624287, 2012; active = well fitted activation curve with a large enough effect; inconclusive = small, poorly fitted or top-dose-only effect, or another doubt; inactive = no such curve, though single readings can be large or run the other way; cell line not stated here;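 note: phosphodiesterase inhibitor Ro 20-1724 added with compounds to block cAMP breakdown; potency is the fitted concentration of half-maximal effect; nearly all actives have a fitted effect of over 60% in size; about a fifth of the inactives were tested at one dose only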
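Cells stably selected in G418 were plated at 2000/well, grown 16-24 hr, then given compounds in DMSO with the PDE inhibitor […] (300 uM solution added) for 30 min at 37C; cAMP was read by HTRF.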
Menin-MLL FL inh – qHTS Assay for Inhibitors Targeting the Menin-MLL Interaction in MLL Related Leukemias: Competition With Fluorescein Labeled MLL-derived Peptide; AID 1766, 2009; 290,000 tested, under 10 active; FP activity change, % at 61.4 µM; Fluorescence polarization, fluorescein-MLL peptide displacement from menin; inconclusive = falling polarisation curve, or a change in total fluorescence; inactive = total fluorescence flat and polarisation flat or rising; no compound was filed as active; the % refers to the polarisation; negative = inhibition;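 note: % of control where 0% means no effect; inhibitors lower the polarisation; unlabelled MLL peptide was the positive control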
The depositor's hits bear a star; ? = inconclusive; · = not tested or not shown; & = joins results of further samples; [ ] = dose if it differs, or a comment.

Results follow in this order: Sfp PPTase inh, TRPV1 PAM, gsp ag, ClpP mod, TRPML1 inh, gsp antagonist, Menin-MLL FL inh
- COc1ccc(-c2noc(N3CCC(C(=O)NCc4ccc(F)cc4)CC3)n2)cc1
  -5%, 4, 14%, 2.2%, -1, -4%, 1.9
- Cc1ccc(S(=O)(=O)N(C(=O)c2ccco2)c2cc3sc(=O)oc3c3ccccc23)cc1
  8.9µM*, 9, 4%, 1.3%, 13, 10%, ·
- COc1ccc(-c2nc3n(c(=O)c2C#N)CCCS3)cc1
  10%, -14, 0%, -2.1%, -10, 3%, 7.7
- CCN(CC)S(=O)(=O)c1cccc(C(=O)NC(C(=O)NC2=NCCS2)C(C)C)c1 (stereo not given)
  0%, -6, 2%, -0.9%, 6, 1%, -1.3
- C=CCn1c(Oc2cc(C)ccc2C)nc2c1c(=O)n(C)c(=O)n2C
  -3%, -12, 3%, 0.6%, -7, -5%, 0.2
- COc1ccc(CCN2CC(C(=O)NCCN3CCOC3=O)CCC2=O)cc1 (stereo not given)
  1%, 1, 14%[15.4 µM], -13%, 3, -6%, 0.6
- CCc1ccc(N(C(C)=O)C2C=CS(=O)(=O)C2)cc1 (stereo not given)
  28%, 2, -12%, 1.3%, 1, 4%, -1.4
- O=C(OCC(=O)N1CCc2ccccc21)c1ccc([N+](=O)[O-])cc1
  ·, -21, 9%, -2.3%, 5, 5%, ·
- Cc1ccc(NC(=O)CSCc2nc3c(nnn3Cc3ccc(F)cc3)c(=O)[nH]2)c(C)c1
  -8%, 18, -1%[15.4 µM], ·, -16, 12%, -0.3
- CN(C)C(=O)CSc1nc2cc(S(=O)(=O)N3CCOCC3)ccc2o1
  ·, ·, 5%[15.4 µM], 0.8%, 23, 12%, ·
- Cc1ccc(C(=O)Nc2cccc([N+](=O)[O-])c2)cc1S(=O)(=O)Nc1ccc(C(=O)O)cc1
  -12%, 2, 3%[15.4 µM], ·, 0, 3%, -0.4
- O=C(Cc1ccccc1Cl)Nc1cccc(S(=O)(=O)N2CCOCC2)c1
  3%, -8, 0%, -0.2%, 2, 1%, -0.3
- CCn1cnc2cc(NCc3ccc(N(C)C)cc3)ccc21
  -5%, 25, -23%, -8.5%&2.0%, 23, -10%, 0.4
- COc1cc(NS(=O)(=O)c2cc(NC(C)=O)ccc2OC)c(OC)cc1NC(=O)c1ccccc1
  ·, ·, 18%, -0.6%, 3, -17%, ·
- O=C(COc1ccccc1Cl)Nc1ccc(C(=O)c2ccc(C(=O)O)cc2)cc1
  -5%, -16, -11%, ·, -5, ?, -2.9
- Cc1c(CCC(=O)NCC(=O)O)c(=O)oc2cc3occ(-c4ccccc4)c3cc12
  -8%, -13, 28%, -12%, ·, -15%, -0.6
- COc1ccc(NC(=O)CCN2CCN(S(=O)(=O)c3ccc(F)cc3)CC2)cc1
  7%, 1, ?, 0.8%, -5, -7%, -2.3
- COc1ccc(N(CC(=O)NC2CCS(=O)(=O)C2)S(=O)(=O)c2ccc(Cl)c(Cl)c2)cc1 (stereo not given)
  ·, 20, 8%[15.4 µM], ·, -2, 2%, ·
- O=C(OCC(=O)N1CCN(c2ccccc2)CC1)c1ccc([N+](=O)[O-])s1
  ·, ·, -28%, -0.8%, -3, -3%, ·
- COc1ccc(CNC(=O)C2CCC(=O)N(CCCN3CCCC3=O)C2)c(OC)c1 (stereo not given)
  10%, -5, 13%, 0.9%, -6, 15%, ·
- COC(=O)c1ccc(SCc2cnc(Cl)s2)cc1
  -11%, 2, 6%, 0.9%, 19, -8%, 0.3
- CCOc1ccccc1CNC(=O)c1cn(C)c(=O)c2c1c1ccccc1n2C
  9%, 0, -7%, 11µM*, 14, -6%, 3.3
- Cc1cccc(N2C(=O)CN(Cc3ccccc3)C2=S)c1
  16%, -12, -25%, ·, 25, -16%, 4.2
- COc1ccc(C(NC(N)=O)c2ccccc2)cc1 (stereo not given)
  0%, 1, 0%, -0.3%, 9, 7%, 14
- O=C(O)CC(NCc1ccco1)C(=O)OCC1CCCO1 (stereo not given)
  0%, ?, 16%, 0.4%, 26, 1%, -0.4
- COc1ccc(-n2cnnc2SC(C)c2nc3sc(C)c(C)c3c(=O)[nH]2)cc1 (stereo not given)
  89µM*, 2, ·, ·, ·, ·, 8.7
- C/C(CC(=O)Nc1cccc(Cl)c1Cl)=N\NC(=O)C(=O)N1CCCC1
  -5%, -2, 0%[15.4 µM], ·, -4, 4%, ·
- O=C(Nc1cccnc1)c1c(F)cccc1F
  5%, 3, 6%, -1.5%, -6, 5%, -8.7
- C=CCN1C(=O)c2ccc(C(=O)N3CCN(S(=O)(=O)c4ccc(C(C)C)cc4)CC3)cc2C1=O
  ·, 0, -10%[15.4 µM], ·, 16, ?, ·
- COc1ccc(-n2c(=O)c3ccccc3n(Cc3cccc(C)c3)c2=O)cc1OC
  14%, 4, 2%[15.4 µM], ·, 2, -9%, -0.9
- O=C(c1cc(COc2ccc(F)cc2F)on1)N1CCN(C2CCCC2)C(=O)C1
  7%, -15, -23%, -1.2%, -7, -13%, -0.4
- Cc1ccc(CNC(=O)CO/N=C/c2ccc3c(c2)OCO3)cc1
  -9%, -25, 11%, -1.2%, -7, 8%, 4.8
- N#Cc1ccc(OCC(=O)NC2CCCCCC2)cc1
  ·, ·, 0%, ·, 1, 7%, ·
- O=[N+]([O-])c1ccccc1CN1CCN(Cc2ccccn2)CC1
  50µM*, -7, 0%[15.4 µM], ·, 2, -2%, -8.4
- COc1cccc(/C=N/NC(=O)CSc2nnc(C)n2-c2ccccc2)c1O
  10%, -6, 14%, -3.2%, -8, 7%, 8.2
- CCOC(=O)c1c(NC(=O)CSc2nnc(-c3cccnc3)n2Cc2ccco2)sc(C)c1C
  ?, 28, -19%, 1.0%, 76, -2%, 7.5
- Cc1cc([N+](=O)[O-])cc2c1NC(c1ccccn1)C1CC=CC21 (stereo not given)
  16%, 5, ?, 0.5%, 12, 6%, -0.4
- O=C(COC(=O)CCc1ccc(S(=O)(=O)N2CCOCC2)cc1)Nc1cccc(Cl)c1
  8%, -5, 0%[15.4 µM], ·, -2, ·, 5.5
- CCCCCCSc1ccc(-c2nc3ccc(Cl)cn3c2NCCCC)cc1OC
  ·, ·, ·, -16%&-14%, 12, 9%, ·
- Cc1ccnc(SCC(=O)Nc2cc(C)on2)n1
  14%, 9, -7%, 2.0%, -20, 22%, ·
- CC(=O)Nc1ccc(S(=O)(=O)NC2=NCN(c3ccc([N+](=O)[O-])cc3)CN2)cc1
  -27%, -5, 7%, -3.4%, 11, 10%, ·
- COc1ccc(/C=C2\C(=O)ON=C2c2ccccc2)cc1OC
  22µM*, 5, -8%, -0.1%, -9, -2%, 1.4
- N#Cc1cccc(C#N)c1NCC1CCCO1 (stereo not given)
  -2%, 1, -47%[inhibitor], 4.1%, -9, 8%, -1.8
- O=C(CCS(=O)(=O)c1cccc2nonc12)NCc1ccc(Cl)cc1
  5%, -23, 6%[15.4 µM], -25%, -7, 0%, 4.4
- S=C(Nc1ccc(Cl)cc1)N1CCCCC1
  -24%, -17, -4%, ?, 2, -19%, 4.1
- O=C1CCCCN1CC(=O)N1CCCC(Nc2ccc(F)c(F)c2)C1 (stereo not given)
  28%, -7, ?, -0.6%, -1, 12%, 0.7
- CC[C@]12C(=O)N(C)C[C@H]([C@@H]3C(=O)N(C)C(=O)[C@@H]31)N2C(=O)c1ccc(F)cc1
  ·, ·, 19%, -3.8%, 13, 9%, ·
- COc1cccc(Oc2nnnn2-c2ccccc2)c1
  20%, -6, 1%, -1.4%, 5, -4%, 3.9
- Cc1cc(C(=O)OCC(=O)Nc2cccc([N+](=O)[O-])c2)c(C)o1
  ·, ·, -56%[inhibitor], -2.5%, -1, 8%, ·
- CCn1cc(CN2CCN(Cc3ccc(C)o3)C(CCO)C2)c2ccccc21 (stereo not given)
  7%, ?, -4%[15.4 µM], ·, -12, 7%, 1.9
- CC(C)(C)NC(=O)C(OC(=O)c1ccco1)c1ccccc1F (stereo not given)
  3%, 7, -9%, 1.1%, 11, 0%, -2.8
- COC(=O)c1nnn(-c2nonc2N)c1CSc1nnc(C)s1
  15%, -1, ?, -0.5%, -2, -6%, 0.0

Part of the list above in a different format:
CC[C@]12C(=O)N(C)C[C@H]([C@@H]3C(=O)N(C)C(=O)[C@@H]31)N2C(=O)c1ccc(F)cc1
- Sfp PPTase inh: ·
- TRPV1 PAM: ·
- gsp ag: 19%
- ClpP mod: -3.8%
- TRPML1 inh: 13
- gsp antagonist: 9%
- Menin-MLL FL inh: ·
COc1cccc(Oc2nnnn2-c2ccccc2)c1
- Sfp PPTase inh: 20%
- TRPV1 PAM: -6
- gsp ag: 1%
- ClpP mod: -1.4%
- TRPML1 inh: 5
- gsp antagonist: -4%
- Menin-MLL FL inh: 3.9
Cc1cc(C(=O)OCC(=O)Nc2cccc([N+](=O)[O-])c2)c(C)o1
- Sfp PPTase inh: ·
- TRPV1 PAM: ·
- gsp ag: -56%[inhibitor]
- ClpP mod: -2.5%
- TRPML1 inh: -1
- gsp antagonist: 8%
- Menin-MLL FL inh: ·
